# HIV Env fusion: blocks HIV Env-driven cell-cell fusion. HeLa-JRFL Env/CEM21 cell fusion, luciferase. inhibition, % at 12.3 µM. 360,000 compounds, 1.1% hits;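 active means mean replicate inhibition score of at least 50 and every replicate individually at or above 50; inconclusive means only one of the two criteria met; inactive means mean below 50 and not all replicates reaching 50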;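 further: 0% = plate neutral controls and 100% = maraviroc near 300 nM; one replicate is shown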
# UUG fidelity: alters start codon recognition fidelity in yeast. S. cerevisiae UUG-firefly luciferase reporter, luminescence/redox ratio. activity score, % at 18.7 µM. 350,000 compounds, 0.13% hits;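 active means replicate mean at a twofold rise or more, about +100% in these data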;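 further: firefly luciferase made from a UUG start codon reports start codon fidelity; reporter light over untreated wells divided by growth signal over untreated wells; some hits fall short of that in this replicate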
# Starred values were filed as active, the others as inactive; u = inconclusive; [ ] = remark or other dose.
entry	canonical_smiles	HIV Env fusion	UUG fidelity
1	C[C@@H]1CCCCO[C@@H](CN(C)C(=O)Nc2ccc(F)cc2)[C@H](C)CN([C@H](C)CO)C(=O)c2cc(NS(=O)(=O)c3ccccc3)ccc2O1	0[16.7 µM]	-12
2	COc1ccccc1C(=O)Nc1ccc2c(c1)C(=O)N(C)C[C@H](OC)[C@@H](C)CN[C@H](C)CO2	-9[16.7 µM]	6
3	C[C@H]1CN([C@@H](C)CO)C(=O)c2cccc(NC(=O)c3ccncc3)c2O[C@@H]1CN(C)Cc1ccc(Cl)c(Cl)c1	-4[16.7 µM]	3
4	Cc1noc(C)c1NC(=O)Nc1ccc2c(c1)C(=O)N([C@H](C)CO)C[C@H](C)[C@H](CN(C)C(=O)Nc1ccc(F)cc1)OCCCC[C@@H](C)O2	9[16.7 µM]	2
5	O=[N+]([O-])c1ccc(COc2ccc(CN3CCCC3)cc2)cc1	-24	15
6	C[C@@H]1CN([C@@H](C)CO)S(=O)(=O)c2ccc(C#Cc3ccncc3)cc2O[C@H]1CN(C)C(=O)C1CCC1	-7[16.7 µM]	1
7	CN(C)CC(=O)N[C@@H]1CC[C@@H](CCNC(=O)C2CCC2)O[C@H]1CO	17[16.7 µM]	-1
8	CCCC#Cc1cnc2c(c1)C(=O)N([C@H](C)CO)C[C@H](C)[C@H](CN(C)C(=O)C1CCOCC1)O2	-2[16.7 µM]	-8
9	C[C@@H]1CN([C@H](C)CO)C(=O)c2cc(/C=C/c3ccccc3)cnc2O[C@H]1CN(C)Cc1cccnc1	-2[16.7 µM]	-6
10	C[C@@H]1CN([C@@H](C)CO)C(=O)c2cc(NC(=O)CCCCCC(=O)Nc3ccccc3N)ccc2O[C@@H](C)CCCCO[C@@H]1CN(C)CC1CCCCC1	-6[16.7 µM]	0

# Ordered by count of non-hydrogen atoms (largest number first): some entries from above.
entry	canonical_smiles	HIV Env fusion	UUG fidelity
4	Cc1noc(C)c1NC(=O)Nc1ccc2c(c1)C(=O)N([C@H](C)CO)C[C@H](C)[C@H](CN(C)C(=O)Nc1ccc(F)cc1)OCCCC[C@@H](C)O2	9[16.7 µM]	2
8	CCCC#Cc1cnc2c(c1)C(=O)N([C@H](C)CO)C[C@H](C)[C@H](CN(C)C(=O)C1CCOCC1)O2	-2[16.7 µM]	-8
2	COc1ccccc1C(=O)Nc1ccc2c(c1)C(=O)N(C)C[C@H](OC)[C@@H](C)CN[C@H](C)CO2	-9[16.7 µM]	6

# Following part
entry	canonical_smiles	HIV Env fusion	UUG fidelity
11	C[C@H](CO)N1C[C@H](C)[C@@H](CN(C)CC2CC2)Oc2ccc(NS(=O)(=O)c3ccc(Cl)cc3)cc2C1=O	-7[16.7 µM]	-4
12	C[C@@H]1CN([C@H](C)CO)C(=O)c2cccc(NC(=O)Nc3ccc4c(c3)OCO4)c2O[C@H]1CN(C)C(=O)Nc1cccc2ccccc12	-81[16.7 µM]	-11
13	C[C@H](CO)N1C[C@H](C)[C@H](CN(C)C(=O)Nc2ccccc2)Oc2ccc(NS(=O)(=O)c3cccs3)cc2CC1=O	6[16.7 µM]	-1
14	C[C@@H]1CN([C@@H](C)CO)S(=O)(=O)c2ccc(-c3cccc(F)c3)cc2O[C@@H]1CN(C)C(=O)C1CC1	22[16.7 µM]	17
15	CC(=O)N(C)C[C@H]1Oc2cc(C#Cc3ccccc3)ccc2S(=O)(=O)N([C@H](C)CO)C[C@H]1C	-4[16.7 µM]	-9
16	CC(C)NC(=O)Nc1ccc2c(c1)C(=O)N([C@@H](C)CO)C[C@@H](C)[C@@H](CN(C)Cc1ccc(C(=O)O)cc1)OCCCC[C@H](C)O2	-5[16.7 µM]	0
17	COc1ccc(S(=O)(=O)Nc2ccc3c(c2)C(=O)N([C@@H](C)CO)C[C@@H](C)[C@H](CN(C)C(=O)Cc2ccccc2)OCCCC[C@@H](C)O3)cc1	-27[16.7 µM]	8
18	O=C(C[C@H]1C[C@H]2c3cc(NC(=O)c4cccnc4)ccc3O[C@H]2[C@H](CO)O1)NCc1ccccc1F	4[16.7 µM]	-16
19	CNC[C@H]1Oc2c(NC(=O)C3CCCCC3)cccc2C(=O)N([C@H](C)CO)C[C@H]1C	11[16.7 µM]	-12
20	Cc1ccc(S(=O)(=O)N[C@H]2CC[C@@H](CC(=O)N3CCN(c4ccccc4)CC3)O[C@@H]2CO)cc1	7[16.7 µM]	3
21	CCC(=O)N[C@@H]1C=C[C@@H](CC(=O)NCc2cc(F)cc(F)c2)O[C@H]1CO	-3[16.7 µM]	-16
22	C[C@H]1CN([C@@H](C)CO)C(=O)Cc2cc(NC(=O)Nc3ccc(F)cc3)ccc2O[C@H]1CN(C)S(=O)(=O)c1ccccc1	54[16.7 µM]	9
23	C[C@H](CO)N1C[C@H](C)[C@@H](CN(C)S(C)(=O)=O)Oc2cc(-c3ccccc3F)ccc2S1(=O)=O	41[16.7 µM]	5
24	COCc1cn(CC[C@H]2CC[C@H](NC(=O)c3ccccc3)[C@@H](CO)O2)nn1	-4[16.7 µM]	-9
25	CCc1csc(N2[C@H](C#N)[C@H](c3ccc(C4=CCCC4)cc3)[C@H]2CO)n1	8[16.7 µM]	2
26	COc1ccc(NC(=O)N[C@H]2CC[C@H](CCNC(=O)CCN3CCCCC3)O[C@@H]2CO)cc1	1[16.7 µM]	-3
27	CCCC#Cc1cnc2c(c1)C(=O)N([C@H](C)CO)C[C@@H](C)[C@H](CN(C)C(=O)Nc1ccccc1OC)O2	4[16.7 µM]	14
28	CCCNC(=O)C[C@@H]1CC[C@@H]2[C@@H](COc3ccc(NC(=O)COC)cc3C(=O)N2C)O1	1[16.7 µM]	-17
29	Cc1ccccc1-c1ccc2c(c1)O[C@H](CN(C)C(=O)Nc1ccc(C(F)(F)F)cc1)[C@@H](C)CN([C@H](C)CO)S2(=O)=O	u	-5
30	Cc1ccc(S(=O)(=O)Nc2ccc3c(c2)C(=O)N([C@H](C)CO)C[C@H](C)[C@H](CN(C)Cc2ccc(C(F)(F)F)cc2)OCCCC[C@@H](C)O3)cc1	-30[16.7 µM]	1
31	CCCC(=O)Nc1ccc2c(c1)C(=O)N(C)[C@H]1CC[C@@H](CC(=O)OC)O[C@@H]1CO2	3[16.7 µM]	-8
32	C[C@H](CO)N1C[C@H](C)[C@@H](CN(C)CC2CCCCC2)Oc2ccc(NC(=O)NC3CCCCC3)cc2CC1=O	19[16.7 µM]	-6
33	COc1ccc(NC(=O)Nc2cccc3c2O[C@@H](CN(C)C(=O)NC2CCCCC2)[C@H](C)CN([C@H](C)CO)C3=O)cc1	9[16.7 µM]	4
34	CN(C)C(=O)C[C@@H]1CC[C@H]2[C@@H](COC[C@H](O)CN2CC2CCCCC2)O1	9[16.7 µM]	-16
35	COc1ccc(CN(C)C[C@@H]2Oc3ccc(NC(=O)C4CCCCC4)cc3C(=O)N([C@@H](C)CO)C[C@@H]2C)cc1	-4[16.7 µM]	14
36	COc1ccc(S(=O)(=O)N(C)C[C@H]2Oc3ccc(NC(=O)Nc4ccc(C(F)(F)F)cc4)cc3CC(=O)N([C@@H](C)CO)C[C@@H]2C)cc1	3[16.7 µM]	-2
37	CN1C(=O)c2cc(NC(=O)c3cccs3)ccc2OC[C@@H]2O[C@@H](CC(=O)NCCN3CCCCC3)CC[C@@H]21	-25[16.7 µM]	27
38	COc1ccc(NC(=O)N(C)C[C@H]2Oc3ccc(NC(=O)NC(C)C)cc3CC(=O)N([C@H](C)CO)C[C@H]2C)cc1	2[16.7 µM]	-16
39	C[C@@H]1CN([C@H](C)CO)C(=O)c2cc(NC(=O)c3ccncc3)ccc2O[C@@H](C)CCCCO[C@H]1CN(C)S(=O)(=O)c1ccc(Cl)cc1	4[16.7 µM]	-7
40	C[C@@H](O)C#Cc1ccc2c(c1)O[C@@H](CN(C)C(=O)c1ccncc1)[C@@H](C)CN([C@@H](C)CO)S2(=O)=O	5[16.7 µM]	-14
41	O=C(C[C@H]1CC[C@H](NS(=O)(=O)c2ccc(F)cc2)[C@H](CO)O1)NC1CCCCC1	9[16.7 µM]	-8
42	CNC[C@H]1Oc2cc(-c3cccc(F)c3)ccc2S(=O)(=O)N([C@H](C)CO)C[C@@H]1C	4[16.7 µM]	3
43	CO[C@H]1CN(C)C(=O)c2ccc(NS(C)(=O)=O)cc2OC[C@@H](C)N(C(=O)C2CCCCC2)C[C@@H]1C	4[16.7 µM]	-1
44	C[C@@H]1CN([C@@H](C)CO)S(=O)(=O)c2ccc(-c3ccc(C#N)cc3)cc2O[C@H]1CN(C)Cc1ccccn1	-11[16.7 µM]	-16
45	COc1ccc(S(=O)(=O)N(C)C[C@H]2Oc3ccc(NS(=O)(=O)c4ccccc4)cc3CC(=O)N([C@H](C)CO)C[C@H]2C)cc1	6[16.7 µM]	-14
46	COc1ccc(NC(=O)Nc2cccc3c2O[C@@H](CN(C)C(=O)Nc2ccc(C(F)(F)F)cc2)[C@@H](C)CN([C@@H](C)CO)C3=O)cc1	-40[16.7 µM]	-2
47	C[C@@H]1CCCCO[C@H](CN(C)C(=O)Nc2ccc(F)cc2)[C@H](C)CN([C@H](C)CO)C(=O)c2cc(NC(=O)c3ccncc3)ccc2O1	27[16.7 µM]	-4
48	CO[C@@H]1CN(C)C(=O)c2ccc(NC(=O)Nc3ccc(C(F)(F)F)cc3)cc2OC[C@H](C)NC[C@@H]1C	9[16.7 µM]	11
49	C[C@H](CO)N1C[C@H](C)[C@H](CN(C)C)Oc2ccc(N(C)C)cc2C1=O	-1[16.7 µM]	-4
50	C[C@@H]1CN([C@@H](C)CO)C(=O)c2cc(C#CC3CCCC3)cnc2O[C@@H]1CN(C)C(=O)Cc1ccccn1	-22[16.7 µM]	23
51	CC(=O)N(C)C[C@H]1Oc2ncc(-c3ccccc3F)cc2C(=O)N([C@@H](C)CO)C[C@H]1C	-26[16.7 µM]	-8
52	C[C@H]1CN([C@@H](C)CO)C(=O)c2cc(C3=CCCC3)cnc2O[C@@H]1CN(C)Cc1ccc(F)cc1	11[16.7 µM]	6
53	C[C@H]1CN([C@@H](C)CO)C(=O)c2cc(C#CCN(C)C)cnc2O[C@H]1CN(C)S(=O)(=O)c1cn(C)cn1	-12[16.7 µM]	11
54	O=C(NC1CCCCC1)N[C@H]1CC[C@H](CC(=O)N2CCOCC2)O[C@@H]1CO	-1[16.7 µM]	-7
55	COc1ccc(S(=O)(=O)Nc2ccc3c(c2)CC(=O)N([C@H](C)CO)C[C@H](C)[C@H](CN(C)C(=O)Nc2ccc(F)cc2)O3)cc1	-5[16.7 µM]	-7
56	COc1ccc(NC(=O)N(C)C[C@@H]2Oc3ccc(NC(=O)Nc4cccc5ccccc45)cc3CC(=O)N([C@@H](C)CO)C[C@@H]2C)cc1	-2[16.7 µM]	18
57	Cc1ccc(S(=O)(=O)Nc2ccc3c(c2)C(=O)N([C@H](C)CO)C[C@H](C)[C@@H](CN(C)CC2CCCCC2)OCCCC[C@H](C)O3)cc1	28[16.7 µM]	23
58	C[C@@H]1CN([C@@H](C)CO)C(=O)c2cc(NC(=O)Nc3ccc(F)cc3)ccc2O[C@@H](C)CCCCO[C@@H]1CN(C)S(=O)(=O)c1ccccc1	-8[16.7 µM]	-5
59	O=C(N[C@H]1CC[C@@H](CCNC(=O)C2CCCC2)O[C@H]1CO)c1ccccn1	6[16.7 µM]	-2
60	C[C@@H]1CCCCO[C@@H](CN(C)C(=O)C2CCCCC2)[C@H](C)CN([C@@H](C)CO)C(=O)c2cc(NC(=O)Nc3ccc(C(F)(F)F)cc3)ccc2O1	30[16.7 µM]	-10

# Sorted by the number under UUG fidelity (high to low): three from the list above
entry	canonical_smiles	HIV Env fusion	UUG fidelity
6	C[C@@H]1CN([C@@H](C)CO)S(=O)(=O)c2ccc(C#Cc3ccncc3)cc2O[C@H]1CN(C)C(=O)C1CCC1	-7[16.7 µM]	1
59	O=C(N[C@H]1CC[C@@H](CCNC(=O)C2CCCC2)O[C@H]1CO)c1ccccn1	6[16.7 µM]	-2
39	C[C@@H]1CN([C@H](C)CO)C(=O)c2cc(NC(=O)c3ccncc3)ccc2O[C@@H](C)CCCCO[C@H]1CN(C)S(=O)(=O)c1ccc(Cl)cc1	4[16.7 µM]	-7

# Later entries.
entry	canonical_smiles	HIV Env fusion	UUG fidelity
61	C[C@H](CO)N1C[C@H](C)[C@@H](CN(C)Cc2ccc(-c3ccccc3)cc2)Oc2ccc(NS(=O)(=O)c3ccc(Cl)cc3)cc2C1=O	-23[16.7 µM]	4
62	C[C@H]1CCCCO[C@H](CN(C)C(=O)Nc2ccc3c(c2)OCO3)[C@@H](C)CN([C@@H](C)CO)C(=O)c2cc(NC(=O)Nc3ccccc3)ccc2O1	-15[16.7 µM]	-3
63	CNC(=O)C[C@H]1CC[C@@H]2[C@H](COc3ccc(NS(=O)(=O)c4ccccc4C)cc3C(=O)N2C)O1	8[16.7 µM]	3
64	C[C@@H]1CN([C@H](C)CO)C(=O)c2cccc(NC(=O)c3ccc(-c4nccs4)cc3)c2O[C@H]1CN(C)C(=O)Nc1ccccc1	-3[16.7 µM]	-5
65	C[C@@H]1CCCCO[C@@H](CN(C)S(=O)(=O)c2ccc(Cl)cc2)[C@@H](C)CN([C@H](C)CO)C(=O)c2cc(NC(=O)NC3CCCCC3)ccc2O1	-4[16.7 µM]	-21
66	C[C@@H]1CN([C@H](C)CO)C(=O)c2cc(C#Cc3ccc(F)cc3)cnc2O[C@H]1CN(C)C(=O)Nc1ccc(F)cc1	9[16.7 µM]	-1
67	O=C(O)[C@@]1(CCS(=O)(=O)c2ccccc2)COC(c2ccc(OCCCO)cc2)=N1	5[16.7 µM]	3
68	C[C@@H]1CN([C@@H](C)CO)C(=O)c2cc(NS(=O)(=O)c3cn(C)cn3)ccc2O[C@@H]1CN(C)C(=O)Nc1ccc(C(F)(F)F)cc1	-1[16.7 µM]	-9
69	O=C(NCC[C@@H]1CC[C@@H](NC(=O)c2ccncc2)[C@@H](CO)O1)Nc1ccc(Cl)cc1	-12[16.7 µM]	-7
70	Cc1ccc(S(=O)(=O)N(C)C[C@@H]2Oc3ccc(NS(=O)(=O)c4c(C)noc4C)cc3CC(=O)N([C@@H](C)CO)C[C@H]2C)cc1	-30[16.7 µM]	19

# Source: PubChem BioAssay

# Only part of the results is shown (hit frequency here may not be typical).
